VDR inhibitor – blocks the human vitamin D receptor. P11473. VDR-SRC2-3 peptide fluorescence polarization, 2 h. Potency, µM, for the others: max response, negative = inhibition, most hits filed as inhibitors. hit rate 0.93% among 400,000. AID 504847; active means well fitted inhibition curve with a large enough effect; inconclusive means small, poorly fitted or top-dose-only effect, or another doubt; inactive means no such curve, though single readings can be large or run the other way; further: series mostly up to about 120 µM
Target sequence (P11473 whole entry, looked up): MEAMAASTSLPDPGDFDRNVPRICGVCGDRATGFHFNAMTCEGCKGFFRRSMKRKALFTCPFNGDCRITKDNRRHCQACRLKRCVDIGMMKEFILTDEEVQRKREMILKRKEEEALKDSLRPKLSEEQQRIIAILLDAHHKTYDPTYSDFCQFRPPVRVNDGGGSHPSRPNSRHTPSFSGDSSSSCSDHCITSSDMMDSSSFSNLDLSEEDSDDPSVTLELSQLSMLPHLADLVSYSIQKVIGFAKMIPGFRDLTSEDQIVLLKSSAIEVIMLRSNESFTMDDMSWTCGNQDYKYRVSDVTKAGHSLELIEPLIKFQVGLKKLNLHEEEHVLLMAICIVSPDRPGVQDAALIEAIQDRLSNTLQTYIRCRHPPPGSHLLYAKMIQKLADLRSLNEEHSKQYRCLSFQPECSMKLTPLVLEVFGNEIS
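After 23 nl compound addition and a short centrifugation, plates sat for 2 hours at ambient temperature; polarization of fluorescence then indicated loss of VDR binding to peptide SRC2-3.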
* marks the source's active call; other numbers are inactive results; ? = inconclusive; [ ] = another dose, or the depositor's remark. On the % scale 0 is the no-effect control and ±100 the full control effect; potency means the concentration at half of the fitted maximal effect. An excerpt; rates above refer to the full screens.

A first look:
VDR inhibitor	SMILES
11%	COC(=O)c1ccc(COC(=O)CCc2nc(-c3ccccc3)c(-c3ccccc3)o2)cc1
-2%	CCOC(=O)COn1c(=O)c(C)[n+]([O-])c2ccccc21
-9%	CC[C@@H](CO)Nc1nc(NCc2ccccc2)c2ncn(C(C)C)c2n1
-10%	CCCCN1C(=O)/C(=C/C=C2/C=Cc3ccccc3N2CC)SC1=S
-4%	Fc1ccc2c(c1)-c1nc(-c3ccccc3)cc(-c3ccccc3)c1CO2
-3%	COc1ccc(NC(=O)C2CCCN(S(=O)(=O)c3cccc4nonc34)C2)cc1 (stereo not drawn)
3%	COc1ccc(N2CCN(C(=O)Cn3c(=O)[nH]c4ccsc4c3=O)CC2)cc1

All compounds of this part, from the first entry:
VDR inhibitor	SMILES
11%	COC(=O)c1ccc(COC(=O)CCc2nc(-c3ccccc3)c(-c3ccccc3)o2)cc1
-2%	CCOC(=O)COn1c(=O)c(C)[n+]([O-])c2ccccc21
-9%	CC[C@@H](CO)Nc1nc(NCc2ccccc2)c2ncn(C(C)C)c2n1
-10%	CCCCN1C(=O)/C(=C/C=C2/C=Cc3ccccc3N2CC)SC1=S
-4%	Fc1ccc2c(c1)-c1nc(-c3ccccc3)cc(-c3ccccc3)c1CO2
-3%	COc1ccc(NC(=O)C2CCCN(S(=O)(=O)c3cccc4nonc34)C2)cc1 (stereo not drawn)
3%	COc1ccc(N2CCN(C(=O)Cn3c(=O)[nH]c4ccsc4c3=O)CC2)cc1
3%	CCc1ccc(-n2c(=O)c3c4c(sc3n(CC(=O)N3CCC(C)CC3)c2=O)CCC4)cc1
?	Oc1ccc(C(=S)N2CCCC2)cc1
-15%	C=CCOc1ccc(C2/C(=C(/O)c3ccc(OC)cc3)C(=O)C(=O)N2CCN2CCNCC2)cc1 (stereo not drawn)
1%	O=c1nc(N2CCOCC2)ccn1Cc1ccc(Br)cc1
10%	CCOc1ccc2[nH]c(=O)c(CN(CCCN3CCOCC3)C(=O)Nc3ccc(F)cc3)cc2c1
-19%	COc1cc(/C=N/NC(=O)C(C)Nc2n[nH]c(=O)[nH]c2=O)cc(OC)c1O (stereo not drawn)
9%	CC(C)Oc1ccc(CNC(=O)C2CCCCN2S(=O)(=O)c2ccc(F)cc2)cc1 (stereo not drawn)
-1%	COc1ccccc1CNC(=O)CN1C(=O)CCc2cc(S(=O)(=O)N3CCCCC3)ccc21
0%	O=C(C(c1ccccc1)C(O)(c1ccccc1)c1ccccc1)N1CCOCC1 (stereo not drawn)
3%	COc1ccc(NC(=O)CC2(CC(=O)O)CCCC2)cn1
3%	Cc1ccnc(NS(=O)(=O)c2ccc(NC(=O)COc3ccccc3)cc2)n1
-11%	O=[N+]([O-])c1ccc(N/N=C\c2cccnc2)nc1
-1%	Cc1ccc(S(=O)(=O)N2CCCCC2)cc1C(=O)c1nccn1C
15%	Cc1ccccc1-c1noc(-c2ccc(N3CCCCC3)c([N+](=O)[O-])c2)n1
10%	Cc1ccc(NC(=O)Nc2nnc(N(C)Cc3ccccc3)s2)c(C)c1
15%	c1cc(-c2nnc3n2CCC3)[nH]n1
3%	CCCCC[n+]1cccc2c3ccccc3ccc21
-21%	CSCC[C@H](NC(=O)[C@@H]1Cc2c([nH]c3ccccc23)C2c3ccccc3C(=O)N21)C(=O)NCC1CCCO1 (stereo partly drawn)
11%	COc1ccccc1NC(=O)C/C(C)=N/NC(=O)C12CC3CC(CC(C3)C1)C2
4%	O=C(NCc1ccccc1Cl)c1nnc(CS(=O)(=O)c2ccccc2)o1
-11%	CN1C(=O)N(C)C(c2cccc([N+](=O)[O-])c2)C2=C1CCCC2=O (stereo not drawn)
7%	Cc1ccc(CSc2nncn3c2cc2sccc23)cc1
19%	COc1ccc(OC)c(CCNc2ncnc3onc(C)c23)c1
2%	O=C(COC(=O)c1ccco1)NC1CCCc2ccccc21 (stereo not drawn)
?	Cc1cccc(-c2nnc(C3CCN(S(=O)(=O)c4cccc(Cl)c4)CC3)o2)c1
8%	CCOC(=O)N1CCN(C(=O)c2ccc(N(Cc3ccc(Cl)cc3)S(C)(=O)=O)cc2)CC1
15%	Cn1c(=O)c2c(O)c(Cc3ccccc3)c(=O)n(C)c2n(C)c1=O
8%	S=C1NCCNC(=S)NCCOCCOCCN1
5%	COc1ccc(S(=O)(=O)Nc2ccc(Cc3ccncc3)cc2)cc1C
-6%	O=c1c2ccccc2n(Cc2cccc(F)c2)c(=O)n1Cc1ccccc1Cl
-16%	Cc1ccccc1C(=O)N/N=C1/SCC(=O)N1Cc1ccccc1
3%	Cc1ccc(CNC(=O)Cc2ccc(-n3c(=O)[nH]c4ccsc4c3=O)cc2)cc1
-2%	Cc1cccc2sc(NC(=O)CN(C)S(=O)(=O)c3cccs3)nc12
2%	Cc1cc(Oc2ccc3ccccc3c2)nc(SCC(=O)c2ccccc2)n1
-1%	COc1ccc(OCc2cc(C(=O)NCC3CCOCC3)no2)c(Cl)c1
-5%	CN(N=O)c1ccc(C=C2C=Cc3ccccc32)cc1
2%	C=CC[C@@H](CC(=O)N[C@@H](CO)Cc1ccccc1)C(=O)N[C@H](COC(=O)[C@@H](CC=C)Cc1ccc(F)cc1)C(C)(C)C
?	COc1ccccc1CNC(=O)c1nn(-c2ccc(C)cc2)c(=O)c2c1c1ccccc1n2C

3 entries out of the list above, arranged by the value under VDR inhibitor, ascending.
VDR inhibitor	SMILES
-1%	COc1ccc(OCc2cc(C(=O)NCC3CCOCC3)no2)c(Cl)c1
8%	CCOC(=O)N1CCN(C(=O)c2ccc(N(Cc3ccc(Cl)cc3)S(C)(=O)=O)cc2)CC1
15%	Cn1c(=O)c2c(O)c(Cc3ccccc3)c(=O)n(C)c2n(C)c1=O

(further entries)
VDR inhibitor	SMILES
9%	COc1cccc(CNC(=O)c2c(C)nn(-c3cccc(C)c3)c2-n2cccc2)c1
-1%	COC(=O)c1ccc(C(=S)N2CCOCC2)cc1
7%	Nc1nc(COC(=O)CCC(=O)c2ccccc2)nc(Nc2ccccc2)n1
5%	CC1Sc2ccc(C(=O)Nc3ccc(S(=O)(=O)N(C)C)cc3)cc2NC1=O (stereo not drawn)
-16%	C/C(=N\Nc1ccc(S(=O)(=O)N2CCOCC2)cc1[N+](=O)[O-])C(C)C
3%	Cc1ccc(NC(=O)CCc2ccc(S(=O)(=O)N3CCOCC3)cc2)c(C)c1
6%	CC(NC(=O)c1cc2ccccc2oc1=O)c1ccccc1 (stereo not drawn)
-3%	CCOc1c2ccc(C(=O)NCc3ccc(OC(F)(F)F)cc3)cc2nn1CC
-8%	O=C(NC1CC(=O)N(c2ccccc2)C1)c1ccc(S(=O)(=O)N2CCOCC2)cc1 (stereo not drawn)
-1%	CNc1c(N=Cc2cccnc2)c(=O)n(C)c(=O)n1C
7%	CCc1ccc(NC(=O)C(C)OC(=O)CN2C(=O)NC3(CCCC3)C2=O)cc1 (stereo not drawn)
-27%	Nc1c(C(=O)NC2CC2)sc2nc3c(c(-c4ccco4)c12)CC/C3=C/c1ccco1
-8%	CC(NC(=S)N1CCOCC1)c1ccccc1 (stereo not drawn)
2%	CCC(=O)c1ccc(OCC(O)CN2CCN(c3cccc(C(F)(F)F)c3)CC2)cc1 (stereo not drawn)
-5%	CCC(NC(=O)NCCCn1ccnc1)(C(F)(F)F)C(F)(F)F
-4%	CCOC(=O)[C@H]1[C@H]2COc3ccc(Cl)cc3[C@@H]2N2C(=O)c3cc(F)ccc3NC(=O)[C@@]12C
-10%	COc1ccccc1N1CCN(C(=O)CSc2nc(N)cc(=O)[nH]2)CC1
-15%	O=C(O)Cn1c(=O)c2c3c(sc2n(Cc2ccccc2F)c1=O)CCCC3
2%	Cc1ccc(NC(=O)CCCn2c(=O)c3cccn3c3ccccc32)c(Cl)c1
-7%	O=C(c1ccccc1F)N1CCN(C2CCC(c3ccccc3)CC2)CC1 (stereo not drawn)
0%	O=C(NCc1ccco1)c1ccc(Cl)c(S(=O)(=O)N2CCCC2)c1
-13%	O=c1oc(CCCO)cc2ccc(C#CC3(O)CCCCC3)cc12
0%	COc1cccc(C(=O)Nc2nnc(-c3cccs3)s2)c1
4%	COc1ccc(Cl)cc1NC(=O)CCS(=O)(=O)c1cc2c(cc1C)NC(=O)CO2
7%	CC(C)(C)c1ccc(C(=O)N2CCN(c3ncccn3)CC2)cc1
-5%	Cc1ccc(NC(=O)CCS(=O)(=O)c2ccc3c(c2)NC(=O)C(C)S3)cc1Cl (stereo not drawn)
40%[activator]	CCNS(=O)(=O)c1ccc(CCC(N)=O)cc1
-5%	COc1c2c(nc3occc13)C(CC=C(C)C)(OC)C(OC(C)=O)CC2 (stereo not drawn)
?	COCC(=O)N1CCC[C@@]2(CCN(Cc3cc(C(F)(F)F)cc(C(F)(F)F)c3)C2)C1
1%	CCOC(=O)c1sc2ccccc2c1S(=O)(=O)Nc1ccc(CC)cc1
-3%	Cc1cccc(NC(=O)C2CCCN(C(=O)Nc3ccc(F)cc3)C2)c1 (stereo not drawn)
10%	CCC1CCCCN1Cc1ccc(OC)c(C)c1 (stereo not drawn)
4%	CCN(C(=O)CN1C(=O)NC(c2ccccc2)(c2ccc(C)c(C)c2)C1=O)C1CCCCC1 (stereo not drawn)
-10%	Cc1ccc(-n2cnc3c(sc4nc(N5CCOCC5)c5c(c43)CCCC5)c2=O)cc1
-4%	CC(C)(C)C(=O)Nc1ccc(S(=O)(=O)Nc2nccs2)cc1
8%	COc1ccc(N2CCN(C(=O)CN(c3ccc(OC)cc3)S(=O)(=O)c3ccccc3)CC2)cc1
11%	Cc1cccc(/N=C/c2c(O)cc(C)oc2=O)n1
-16%	COc1ccc(S(=O)(=O)N2CCCCC2)cc1NC(=O)CSc1nnc(C2CC2)n1C
2%	CCCNC(=O)C1CCC(CNS(=O)(=O)c2ccc3c(c2)N(C(C)=O)CCO3)CC1 (stereo not drawn)
0%	O=C(N[C@H]1CCCc2ccccc21)O[C@@H]1C(=O)c2cc(Br)ccc2O[C@H]1c1ccc2c(c1)OCO2
13%	CC(=O)NS(=O)(=O)c1ccc(NC(=O)c2oc3c(Cl)cccc3c2C)cc1
-3%	CCC(=O)NNC(=S)NC(=O)c1ccc(C)cc1
-9%	Cc1ccnc(NC(=O)CCC(=O)N(CC(=O)NC(C)(C)C)Cc2ccc3c(c2)OCO3)c1
-11%	CC1Cc2nc(SCC(=O)Nc3nccs3)n(C)c(=O)c2S1 (stereo not drawn)
-6%	O=C(NC1CC1)c1cc2cc(Br)ccc2s1
-9%	O=C(NCCc1ccccc1)c1ccc2c(c1)N(Cc1ccccc1F)C(=O)c1ccccc1S2=O (stereo not drawn)
-3%	O=C(c1cccc(Cl)c1)N1CCN(Cc2ccc3c(c2)OCO3)CC1
-1%	CN(C)CCNC(=O)c1ccccc1-c1ccccc1
13%	OC1(c2ccc(Br)cc2)CCNCC1
-2%	Cn1c(=O)c2c(nc(OCc3cccnc3)n2Cc2c(F)cccc2Cl)n(C)c1=O
-12%	CCOC(=O)C1CCN(c2nc(C)cc(C)c2C#N)CC1
-10%	CC(/C=C\c1ccccc1)=C/C(=O)O
-21%	COc1cccc(C2=CC(=O)C(C(C)(C)C)N2C(C)(C)C)c1 (stereo not drawn)
-18%	O=C(NC1CCCN(CCc2ccccc2)C1)c1c(F)cccc1F (stereo not drawn)
-15%	CC(=O)c1cccc(NC(=O)CCc2nnc3ccc(N4CCN(C)CC4)nn23)c1
-14%	C=CCc1cc(OC)ccc1OCCOCCC(C(=O)OCC)C(=O)OCC
-11%	CCOC(=O)c1ccc(NC(=O)c2ccc(C)c(S(=O)(=O)N3CCOCC3)c2)cc1
7%	Cc1cc(C)cc(NC(=O)CSc2nnc(CNC(=O)c3c(F)cccc3Cl)o2)c1
14%	COc1cc(C(C)=O)ccc1OCc1cc(C(=O)N(C)CCC2CCCCO2)no1 (stereo not drawn)
13%	COc1ccc(-c2nn(-c3ccccc3)cc2C(=O)O)cc1N

More compounds:
VDR inhibitor	SMILES
-22%	Cc1ccc(C)c(NC(=S)N2CCC(NC(=O)C3CCCCC3)CC2)c1
-8%	O=C(CN1C(=O)NC(Cc2c[nH]c3ccccc23)C1=O)Nc1ccccc1Br (stereo not drawn)
14%	COC(=O)C1=C(C)N(Cc2ccc(C)cc2)C(=O)C1
5%	COc1ccc(/C=C2\CCCC3C2=NN(C(=O)COC(=O)CNC(=O)c2ccccc2)C3c2ccc(OC)cc2)cc1 (stereo not drawn)
12%	Cc1cc(OC(=O)c2cc([N+](=O)[O-])ccc2Cl)c([N+](=O)[O-])c(=O)[nH]1
9%	CCOC(=O)c1c(S(=O)(=O)NCC(=O)Nc2cccc(C)n2)c(C)n(C)c1C
15%	COc1ccc(N2C(=O)CC(N3CCN(c4ccccc4F)CC3)C2=O)cc1 (stereo not drawn)
5%	CN(c1ccccc1)S(=O)(=O)c1cccc(C(=O)NCCCN2CCCC2=O)c1
-9%	CCn1c(=O)c2c3c(sc2n(C)c1=O)CCC3
0%	CCCCn1cc(S(=O)(=O)c2ccc(C)c(C)c2)c(=O)c2cc(F)c(N3CCN(C)CC3)cc21
0%	CC1(C(=O)OCC(=O)Nc2ccc(C(N)=O)cc2)CC1(Cl)Cl (stereo not drawn)
